HSD17B inh: inhibitors of human HSD17B10 dehydrogenase; Q99714; recombinant HSD17B10, NADH fluorescence kinetic; many of its hits are not listed in these tables; Potency, µM (series often up to 57.1 µM), for the others: top-dose activity change, negative = inhibition, hits mostly inhibitors; 75,000 compounds, 7.6% hits; AID 893; active = well fitted inhibition curve with a large enough effect; inconclusive = small, poorly fitted or top-dose-only effect; inactive = no such curve, though single readings can be large or run the other way;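 note: the protocol describes HADH2 (HSD17B10) and not the HSD17B4 of the title; nearly all actives have a fitted effect of over 70% in size; most hits overshoot -100% by far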
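20 nM HADH2, pH 9.0 Tris/Tween; cpd preinc 15 min RT; start w/ 1 mM NAD+ + 90 uM b-hydroxybutyryl-CoA; kinetic fluor ex360/em450 q30s x 4 min; delta last-first.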
Active calls of the source: *; ? = inconclusive; & = joins results of further samples; [ ] = dose if it differs, or a comment. % is set by controls: 0 for no effect and ±100 for the full control effect; potency is the fitted concentration of half-maximal effect.

SMILES	HSD17B inh
Cn1c(CN2CCCCC2)nc2cc(NS(=O)(=O)c3ccc(Cl)cc3)ccc21	5%
Cc1ccc(S(=O)(=O)NC(=O)N2CCC(C)CC2)cc1	2%
CCOC(=O)C(CCC#N)(CCC#N)C(=O)OCC	-3%
COc1ccc(-n2c(SCC#N)nnc2-c2cccnc2)cc1	5%
c1csc(C(c2nnnn2C2CCCC2)N2CCOCC2)c1 (stereo unspecified)	3%
COc1ccc(CCNc2ncnc3[nH]ncc23)cc1OC	8%
Cc1cccc(Nc2ccccc2)c1	-24%
CC(=O)Nc1cnn(Cc2ccc(Br)cc2)c1	-4%
CCOC(=O)N1CCC(N2C(=O)c3ccc(C(=O)NCc4ccco4)cc3C2=O)CC1	-26%
COc1ccc(CN2CC(C(=O)NCCCOC(C)C)CC2=O)cc1 (stereo unspecified)	5%
CCCCn1nnc(NC(=O)c2ccco2)n1	1%
CCNc1nc(NCC)nc(OCCOC(=O)c2ccccc2)n1	-5%
CCCN(CCC)CCNc1c(N2CCN(C(=O)OCC)CC2)c(=O)c1=O	6%
COCCCNC(=O)CC(NS(=O)(=O)c1ccc(OC)cc1)c1ccc(OC)cc1 (stereo unspecified)	3%
COc1cc(OC)cc(C(=O)NC2CC3CCC(C2)N3Cc2ccco2)c1 (stereo unspecified)	-1%
O=C(Nc1ccc2oc(-c3cccnc3)nc2c1)c1cccnc1	?
O=C(NCc1ccco1)c1ccc(OCC2CCCO2)cc1 (stereo unspecified)	1%
CCn1c(SCc2nc3ccccc3s2)nc2cc(S(=O)(=O)N3CCOCC3)ccc21	-5%
Fc1ccc(OCc2nn3cnnc3s2)cc1	18%
O=C(CC12CC3CC(CC(C3)C1)C2)N1CCOCC1	3%

Filtered by structure: the entries above with a furan ring, fused or not (four)
SMILES	HSD17B inh
CCOC(=O)N1CCC(N2C(=O)c3ccc(C(=O)NCc4ccco4)cc3C2=O)CC1	-26%
CCCCn1nnc(NC(=O)c2ccco2)n1	1%
COc1cc(OC)cc(C(=O)NC2CC3CCC(C2)N3Cc2ccco2)c1 (stereo unspecified)	-1%
O=C(NCc1ccco1)c1ccc(OCC2CCCO2)cc1 (stereo unspecified)	1%

Structural class, the entries above with an aryl methoxy group
SMILES	HSD17B inh
COc1ccc(-n2c(SCC#N)nnc2-c2cccnc2)cc1	5%
COc1ccc(CCNc2ncnc3[nH]ncc23)cc1OC	8%
COc1ccc(CN2CC(C(=O)NCCCOC(C)C)CC2=O)cc1 (stereo unspecified)	5%
COCCCNC(=O)CC(NS(=O)(=O)c1ccc(OC)cc1)c1ccc(OC)cc1 (stereo unspecified)	3%
COc1cc(OC)cc(C(=O)NC2CC3CCC(C2)N3Cc2ccco2)c1 (stereo unspecified)	-1%

Carrying on:
SMILES	HSD17B inh
Cc1ccc(C)c(N2CCN(C(=O)c3ccc(CS(=O)(=O)c4ccccc4C)o3)CC2)c1	-8%
Cc1ccc2c(c1)cc(CN(CCc1ccccc1)C(=O)N1CCOCC1)c1nnnn12	4%
COc1ccc(-c2cc(C(=O)NCc3cccs3)no2)cc1OC	?
COc1ccc(OC)c([C@H](O)CNC(=O)CN)c1	0%[25.6 µM]
Cc1ccccc1C(=O)Nc1ccc(Br)cn1	4%
Cc1cccc(NC(=O)c2ccc3ccccc3n2)n1	-21%
Cn1c(C(=O)NC2CCCCC2)cc2sccc21	-14%
CCOc1ccc(-c2nc(-c3ccc(OC)c(OC)c3)no2)cc1OCC	-1%
Cc1csc(SCC(=O)c2cc(C)n(Cc3cccs3)c2C)n1	-12%
O=C(CN(C(=O)Cn1nnc(-c2cccs2)n1)c1ccc2c(c1)OCCO2)NC1CCCCC1	1%
CCN(CC)C(=O)c1csc(Nc2ccc(C)cc2)n1	-4%
C=CCN=c1sc(C(=O)OC)cc(=O)n1CC=C	-8%
Cc1[nH]c(=O)[nH]c(=O)c1S(=O)(=O)N1CCC(C(=O)N2CCN(Cc3ccccc3)CC2)CC1	22%
O=C(Cn1c(=O)oc2cc(S(=O)(=O)N3CCOCC3)ccc21)N1CCc2ccccc2C1	-1%
O=C(Nc1ccccc1N1CCN(C(=O)c2ccccc2)CC1)c1cc2ccccc2o1	43%[activator]
CCCn1c(-c2ccc(F)cc2)nc2c(NCCCCN(C)C)nc(C)nc21	25µM*
COc1cc(O)c(C(=O)O)c(O)c1	8%
COc1ccc(CCNC(=O)c2nnc(Cc3c(F)cccc3Cl)o2)cc1OC	0%
O=C(c1cnccn1)N1CCC2(CC1)CN(c1ncccn1)C2	32µM*
O=C1Nc2ccccc2C12OCCCO2	11%
O=c1cnc2cnc(Oc3cccc(Cl)c3)nc2n1Cc1ccc(F)cc1	-6%
O=C(Nc1cccc2c1CCCC2)C1CCCN(S(=O)(=O)c2cccc3nonc23)C1 (stereo unspecified)	0%
COC(=O)N1CCN(c2ccc(C(C)=O)cc2)CC1	-16%
CCOC(=O)/C(C(N)=NC(C)C)=C(\O)c1ccccc1	3%
Cc1cc(C)cc(N(C(=O)CNC(=O)c2ccco2)C(C(=O)NC2CCCC2)c2cccnc2)c1 (stereo unspecified)	10%
C#CC(CO)N(CCN(Cc1ccccc1)C(C#C)CO)Cc1ccccc1 (stereo unspecified)	1%
CSCCC(NC(N)=O)C(=O)NCC1CCCCC1 (stereo unspecified)	12%
CCC(=O)c1cc(F)c(N2CCN(S(=O)(=O)c3ccccc3)CC2)cc1C	-6%
COCC(C)n1c(SCc2ccc(C(=O)OC)o2)nc2ccccc2c1=O (stereo unspecified)	-8%
CCOc1ccc(NC(=O)C2CC(=O)N(CC)C(=Nc3ccc4c(c3)OCO4)S2)cc1 (stereo unspecified)	-3%
Cc1ccc(Nc2nc(N)nc(CSc3nccn3C)n2)c(C)c1	-2%
CCOC(=O)c1ccccc1NC(=O)COC	?
N#CCCS(=O)(=O)c1nnnn1-c1ccccc1	?
O=C(O)CC(NC(=O)c1ccccc1NC(=O)c1ccccc1)C(=O)O (stereo unspecified)	-4%
O=C(c1cccs1)N1CCCC(c2ccccc2)C1 (stereo unspecified)	14%
O=C(Nc1ccon1)c1cccc(S(=O)(=O)N2CCCC2)c1	12%
COCCn1c(SCC(=O)Nc2ccccc2)nc2c1c(=O)[nH]c(=O)n2C	3%
Cc1nc(C)n(CC(O)COc2ccc3cc(Br)ccc3c2)n1 (stereo unspecified)	2%
O=C(O)c1ccc(O)cc1O	-7%&-1%
COCCCN1C(=O)C(=O)/C(=C(/O)c2ccc(OC(C)C)cc2)C1c1ccncc1 (stereo unspecified)	-17%
CCOC(=O)N1CCN(S(=O)(=O)c2cc(C)c(C)cc2C)CC1	6%
NC(=O)CSc1oc(-c2ccc(F)cc2)nc1S(=O)(=O)c1ccccc1	-4%
Cc1cc2nc(N)sc2cc1C	-2%
O=S(=O)(c1ccc(Oc2ccc3oc4ccccc4c3c2)nc1)N1CCCC1	-19%
CC(=O)OC/C=C(\C)CC/C=C(\C)CC/C=C(\C)CC/C=C(\C)CC/C=C(\C)CC/C=C(\C)CC/C=C(\C)CC/C=C(\C)CCC=C(C)C	4%
Cc1cccc(C)c1NC(=O)N1CCC(c2nc3ccccc3o2)CC1	2%
CCC1CCCCN1CCNC(=O)C1CCN(S(=O)(=O)c2c(C)noc2C)CC1 (stereo unspecified)	4%
Cc1nnc(NC(=O)CCC(=O)NCc2ccco2)s1	1%
Cc1cc2c(c(=O)o1)C(C(C)C)C(C#N)=C(N)O2 (stereo unspecified)	-7%
CN1CCN(C2=C(Cl)C(=O)N(c3ccc(Cl)cc3)C2=O)CC1	-12%
Cc1nc2ccc3nc(NC(=O)c4ccco4)sc3c2s1	?
CCOC(=O)N1CCN(c2c(NCCc3ccc(OC)c(OC)c3)c(=O)c2=O)CC1	2%
O=c1cc(CSc2ccccn2)[nH]c(=O)[nH]1	8%
Cc1cc(=O)oc2cc(OCC(=O)NCCc3nc4ccccc4[nH]3)ccc12	?
Cc1cc(-c2ccccc2N)n[nH]1	25µM*
CCOC(=O)CSc1nnc(CNC(=O)c2ccc(OC)c(OC)c2)n1C	1%
CC(=O)N1CC=C2C(C#N)=C(N)C(C#N)(C#N)C(CCc3ccccc3)C2C1 (stereo unspecified)	494%[activator]
CC(C)=CCc1c(O)cc2occ(-c3ccc4c(c3)OCO4)c(=O)c2c1O	7%
CC(C)c1ccc2c(c1)CC[C@@H]1[C@@](C)(CN)CCC[C@]21C	-2%
Cc1nc2cnc(N3CCNCC3)nc2n(Cc2cccs2)c1=O	?

The list goes on:
SMILES	HSD17B inh
CCOc1ncccc1C(=O)Oc1ccc2c(c1)OCO2	8%
COCCCNc1ccnc2c(Cl)cccc12	32µM*
O=C(CCSc1nc(-c2ccco2)cc(C(F)(F)F)n1)N1CCN(c2ccccn2)CC1	-7%
FC(F)(F)c1ccc(CN2C[C@@H]3C(c4ccc(Cl)nc4)C4(c5ccccc5)CC3(C4)[C@H]2c2ccccc2)cc1 (stereo partly specified)	-9%
COc1ccc(-n2c(=O)c(C)nc3cnc(OC)nc32)cc1	9%
Cc1nnc(SCCn2c(N3CCC(Cc4ccccc4)CC3)nc3c2c(=O)[nH]c(=O)n3C)s1	7%
CSCCC(NC(=O)C1CCC(C)CC1)C(=O)NCc1ccco1 (stereo unspecified)	10%
C=C(C)c1cccc(C(C)(C)NC(=O)N2CCCC(C(N)=O)C2)c1 (stereo unspecified)	-16%
O=C(Nc1ccc2c(c1)nc1n2CCSC1)c1ccccc1	-17%
O=C1CC(c2ccccc2)n2nc(NC(=O)C3CCCO3)nc2N1 (stereo unspecified)	10%
CSC1=C(C#N)C(c2ccccc2Cl)C2=C(CCCC2=O)N1 (stereo unspecified)	-12%
c1ccc2c(c1)nc1sccn12	5%
COC(=O)[C@H](C)NC(=O)C/C=C\[C@@H](C)[C@H]1C=C[C@H](O)[C@@H](CO)O1	0%[11.4 µM]
N#Cc1cccc(CSc2nnc(CCCO)n2-c2ccccc2)c1	8%
Cc1ccc2nc(C3CCCN(C(=O)NCc4ccccc4)C3)[nH]c2c1 (stereo unspecified)	0%
C=CCNc1ncnc2c1cnn2-c1ccc(C)cc1C	-25%
O=c1cc(CSc2nnc(-c3ccccc3)o2)c2ccccc2[nH]1	1%
CCOC(=O)C1CCN(C(=O)COC(=O)COc2ccccc2OC)CC1	14%
N#CC1=C(N)Oc2n[nH]c(-c3ccccc3)c2C1c1cccc(OC(=O)N2CCOCC2)c1 (stereo unspecified)	1%
CCC(=O)Nc1c(C)ccc2nsnc12	-4%
CS(=O)(=O)NCC(c1cccnc1)N1CCN(c2ccc(F)cc2)CC1 (stereo unspecified)	0%
CN(C)C(=O)c1cc(S(=O)(=O)N(C)C)c(Cl)cc1N1CCCC1	1%
CCSC1=C(C#N)C(c2cccc(OC)c2)CC(=O)N1 (stereo unspecified)	6%
CC1Cc2ccccc2N1S(=O)(=O)c1cccc(C(=O)NC2CC2)c1 (stereo unspecified)	-3%
COc1ccc(N(C(=O)c2ccco2)C(C(=O)NC2CCCC2)c2ccc(N(C)C)cc2)cc1 (stereo unspecified)	3%
O=C(CCn1nnc2ccccc21)Nc1nnc(COc2ccc(F)cc2)s1	10%
COc1ccc(-n2nnnc2SCC(=O)Nc2ccc3c(c2)OCCO3)cc1OC	-5%
Cc1noc(/C=C/N(C)C)c1S(=O)(=O)N1CCCC(C(=O)N2CCCCC2)C1 (stereo unspecified)	-1%
O=C(Cn1cnc2ccccc2c1=O)NCC(=O)N1CCN(Cc2ccc3c(c2)OCO3)CC1	6%
O=S(=O)(NCc1ccccn1)c1cccc2nsnc12	13%
COc1cc(NC(=O)C(C)Oc2ccccc2)c(C(=O)O)cc1OC (stereo unspecified)	3%
CCOC(=O)C1CCN(C(=O)Nc2ccc3c(c2)nc(C)n3C)CC1	0%
C=CCN1CCN(C(c2ccc(Cl)cc2)c2nnnn2CCc2ccc(OC)c(OC)c2)CC1 (stereo unspecified)	15%
CCOC(=O)c1ccc(Oc2cc(C)nc(SC)n2)cc1	-3%
CCn1cc(C(=O)NCc2ccccc2OC)c(=O)c2cc(S(=O)(=O)N(C)C)ccc21	6%
Cn1c(=O)c2c(nc(CN3CCN(CCO)CC3)n2Cc2cccc3ccccc23)n(C)c1=O	9%
CCN(CC)CCN1C(=O)C(O)=C(C(=O)c2ccc(C)o2)C1c1ccccn1 (stereo unspecified)	10%
CC(C)C1Oc2ccccc2N(CC(=O)N(Cc2ccccn2)CC2CCCO2)C1=O (stereo unspecified)	3%
Fc1ccccc1C(c1nnnn1Cc1ccc2c(c1)OCO2)N1CCN(Cc2ccccc2)CC1 (stereo unspecified)	7%
CCOC(=O)N1CCN(S(=O)(=O)c2cc(OCC)ccc2OCC)CC1	3%

In the list so far, these contain a CF3 group:
SMILES	HSD17B inh
O=C(CCSc1nc(-c2ccco2)cc(C(F)(F)F)n1)N1CCN(c2ccccn2)CC1	-7%
FC(F)(F)c1ccc(CN2C[C@@H]3C(c4ccc(Cl)nc4)C4(c5ccccc5)CC3(C4)[C@H]2c2ccccc2)cc1 (stereo partly specified)	-9%

Additional results.
SMILES	HSD17B inh
Cc1ccc(C)c(C(=O)CSc2n[nH]c(C)n2)c1	-24%
Cc1nc(N2CCN(C)CC2)c2sc(=S)n(-c3ccccc3)c2n1	6%
Cc1cccc(-n2c(N)cc(=O)nc2SC(C)C(=O)NC2CCCCC2)c1 (stereo unspecified)	12%
CCN1CCN(Cc2ccc(NC(=O)Nc3cccs3)cc2)CC1	-15%
Cc1nn(C)cc1CNC(=O)c1cnn2c1NC(c1ccc(Br)cc1)CC2C(F)(F)F (stereo unspecified)	-3%
Cc1ccc2c(C)nc(Nc3nc(CSc4nnnn4-c4ccccc4)cc(=O)[nH]3)nc2c1	11%
CCCCNC(=O)CC1N=C2c3ccccc3N=C(SCC(=O)Nc3cccc(C)c3)N2C1=O (stereo unspecified)	-9%

A portion of the library; count on the stated rates, not on these rows.
